rRNA inh HTS: selective bacterial rRNA inhibition in E. coli. E. coli WT GFP vs humanized-ribosome RFP mutants, fluorescence, 24 h; active compounds read low; DMSO median 0, no signal -100. GFP signal change (wild-type ribosome), % (no concentration beside the values). 350,000 tested, 1.6% active;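 active = significant combined selectivity score with lowered wild-type GFP, culture density cut under 30%, mutant RFP and density less affected; inactive = any of these conditions unmet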; note: one replicate is shown; some compounds called inactive have numbers as strong as hits
T cruzi inh: blocks replication of Trypanosoma cruzi. T. cruzi beta-gal in NIH3T3, luminescence, 90 h. 300,000 tested, 1.4% active. inhibition, % (concentration not given with the values);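 active = mean inhibition across valid replicates above about 55%, limit read from the data; inconclusive = mean below that limit but half or more replicates reach it; inactive = mean below it, under half of replicates reach it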;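 note: signal also drops with host cell toxicity which is not excluded here; 0% = plate median of DMSO wells and 100% = zero luminescence signal; higher percent means less beta-gal luminescence so fewer parasites; stock transfer was 50 nL into about 50 µL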
MLL AF4-AF9 inh: inhibitors of human MLL-AF4/AF9 interaction; P42568; AlphaScreen, biotin-AF4 peptide binding to FLAG-AF9; 350,000 tested, 0.47% active; AID 651704; inhibition, % at 10 µM;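 active = every replicate reaching a set inhibition limit, whatever the replicate mean, cut at about 25% in these data; inconclusive = mean inhibition reaches that limit but some replicates miss it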;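 note: 0% = plate neutral control median and 100% = total signal loss; the record names both 10 and 1 µM as test concentration; the first replicate is given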
Target sequence (P42568 whole entry, looked up): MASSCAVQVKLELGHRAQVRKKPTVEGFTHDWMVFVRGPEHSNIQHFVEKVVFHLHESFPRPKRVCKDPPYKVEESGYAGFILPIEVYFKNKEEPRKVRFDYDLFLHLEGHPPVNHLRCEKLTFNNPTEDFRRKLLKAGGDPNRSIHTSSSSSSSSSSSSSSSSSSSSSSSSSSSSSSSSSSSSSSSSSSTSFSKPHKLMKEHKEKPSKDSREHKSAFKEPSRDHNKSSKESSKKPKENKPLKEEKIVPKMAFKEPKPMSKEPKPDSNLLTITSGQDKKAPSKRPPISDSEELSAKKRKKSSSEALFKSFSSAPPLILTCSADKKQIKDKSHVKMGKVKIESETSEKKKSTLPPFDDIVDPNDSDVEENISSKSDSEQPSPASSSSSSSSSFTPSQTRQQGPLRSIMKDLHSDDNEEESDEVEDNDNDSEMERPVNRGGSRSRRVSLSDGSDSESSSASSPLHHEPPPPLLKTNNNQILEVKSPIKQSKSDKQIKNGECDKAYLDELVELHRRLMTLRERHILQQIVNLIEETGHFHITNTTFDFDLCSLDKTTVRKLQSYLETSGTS
Bfl-1 A1 inh: inhibitors of the anti-apoptotic protein A1, read as caspase activation | MEF A1-2A-BIM cells, Caspase-Glo 3/7 luminescence, 3 h; percent of clofoctol response, vehicle zero | caspase activation, % (no concentration beside the values) | 330,000 tested, 0.066% active | AID 2462;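 active = over half of replicate activation scores above 10%, or exactly half above 10 with the replicate mean above 10; inconclusive = replicate mean below 10 yet half the replicates above 10; inactive = over half of replicates below 10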;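 note: wells of about 30 µL received 50 nL stock; many hits fall short of the cut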
Vif TR-FRET: HIV-1 Vif–A3G interaction blockers – biochemical, TR-FRET, GST-Vif 1-94, biotin-A3G peptide, dose response retest, primary screen (AID 1117319); TR-FRET GST-Vif / biotin-A3G peptide binding; higher % means a stronger effect; test concentration not given here; strong numbers were not always called active; one-dose inhibition, %; IC50 in µM for titrated hits; 260,000 tested, 0.57% active;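 active = above the screen mean plus three standard deviations and confirmed in dose response; inconclusive = results disagree or hit not tested in dose response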;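 note: Vif residues 1-94 fused to GST binding biotinylated APOBEC3G peptide 110-148; 0% = full assay without inhibitor and 100% = GST in place of GST-Vif; retest series ran down from 100 µM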
RanGTP-Impb inh: disruptors of Ran-importin-beta complex formation – biochemical, FRET, CFP-Ran, YFP-importin-beta, homogeneous, primary screen; cell-free CFP-Ran/YFP-importin-beta FRET ratio; inhibition, % (no concentration beside the values); 300,000 tested, 1.1% active; AID 2216;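 active = most replicates above 15%; inconclusive = exactly half above 15%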;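 note: 0% = DMSO wells and 100% = Ran loaded with GDP instead of GTP; wells of about 40 µL received 100 nL stock; the first replicate is given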
Calb FLC: affects C. albicans growth with fluconazole; 300,000 tested, 0.57% active; growth inhibition, % (no concentration beside the values); C. albicans CaCi-2 (fluconazole-resistant clinical isolate) + fluconazole, Alamar Blue growth, 48 h;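 active = most replicates above 75%; inconclusive = exactly half above 75%; inactive = most below 75%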;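 note: all wells also contain fluconazole at 8 µg/ml as a sub-toxic cotreatment; 0% = median of DMSO wells and 100% = median of geldanamycin control wells; wells of about 8 µL received 7.5 nL stock; the first replicate is given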
Beta apoptosis: beta cell apoptosis inhibition | 300,000 tested, 0.8% active | AID 435005 | protection from apoptosis, % (no concentration beside the values) | INS-1E cytokine-induced death, ATP luminescence, 48 h; percent of positive-control rescue, neutral wells zero;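 active = all replicates at 75% or more, or half of them and the mean; inconclusive = half reach 75% but not the mean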;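 note: 0% = cytokine-treated negative control wells and 100% = positive control rescue; higher means more ATP so stronger rescue from cytokine killing; wells of about 40 µL received 100 nL stock; the first replicate is given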
rRNA inh HTS OD600: second read-out of rRNA inh HTS, no call of its own (marks repeat the call); OD600 change, %; measured here: OD600 growth;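 optical density of the mix in the first replicate; 0 = DMSO median and -100 = no signal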
rRNA inh HTS RFP: recorded beside rRNA inh HTS, whose call it bears; RFP signal change, %; measured here: RFP humanized mutant strains;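 first replicate; 0 = DMSO median and -100 = no signal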
Active calls of the source: *; ? = inconclusive; / = no result given; & = joins results of further samples. Only part of the results is shown; count on the stated rates, not on these rows.

SMILES	rRNA inh HTS	rRNA inh HTS OD600	rRNA inh HTS RFP	T cruzi inh	MLL AF4-AF9 inh	Bfl-1 A1 inh	Vif TR-FRET	RanGTP-Impb inh	Calb FLC	Beta apoptosis
Cc1ccc(NC(=O)C(=O)NCC2OCCc3ccccc32)cc1 (stereo unspecified)	21.1	16.6	2.1	9.3	-1.8	0.0	/	5.7	0.7	-5.9
CCCc1c(C)c2cc(C)ccc2[nH]c1=O	/	/	/	15.3	/	0.8	-2.8%	0.1	-29.6	-1.6
CCOc1ccc(S(=O)(=O)Nc2nccs2)cc1	/	/	/	7.6	/	-1.2	-1.0%	1.7	2.6	-3.9
Cc1ccc2[nH]c(=O)c(CN(CCCN3CCOCC3)C(=O)NC3CCCCC3)cc2c1	/	/	/	5.2	/	-0.6	-8.0%&-4.3%	0.6	3.8	-8.1
COc1ccc(NC(=O)N(CCc2ccccc2)Cc2cc3c(C)cc(C)cc3[nH]c2=O)cc1	/	/	/	38.7	/	1.0	-0.5%	-0.7	10.1	-2.5
COc1ccc(NC(C)c2ccccc2)cc1 (stereo unspecified)	4.4	0.0	-3.6	-7.5	0.8	/	21.4%	1.2	3.1	/
CC(C)Sc1n[nH]c(=O)n1-c1ccccc1	/	/	/	/	-0.1	-0.3	-10.3%	?	-8.7	-3.4
O=C(NC(=S)Nc1ccc2c(c1)OCCO2)c1cccc2ccccc12	-18.1	-17.9	-4.0	4.8	7.2	0.4	3.8%	2.8	0.5	-5.5
CC(C)CCNC(=O)NC(=O)COC(=O)C1=COCCO1	/	/	/	-0.7	/	-0.1	2.1%	-0.8	0.2	-8.5
O=C(NC1CCS(=O)(=O)C1)c1cccc(S(=O)(=O)N2CCCCC2)c1 (stereo unspecified)	/	/	/	-19.4	/	0.1	-1.8%	-3.7	-10.1	-2.8
CCOc1ccc(S(=O)(=O)N2CCN(CC(O)COc3cccc([N+](=O)[O-])c3)CC2)cc1 (stereo unspecified)	-0.9	-0.2	3.9	-18.1	-0.7	0.4	/	3.3	10.0	6.4
Cc1ccc(C)c(-n2nnnc2SCC(=O)Nc2cccc(-c3nnc4n3CCCCC4)c2)c1	/	/	/	-6.8	/	-0.9	-2.5%	-1.7	33.0	1.1
CC1(C)Cc2ccccc2C(=NC(Cc2c[nH]c3ccccc23)C(=O)O)N1 (stereo unspecified)	4.5	7.0	-3.6	-15.0	2.1	-0.3	/	3.6	8.7	-0.1
CCOC(=O)c1ccc(NC2Nc3cc(C)nn3S2)cc1 (stereo unspecified)	-11.9	2.1	-1.4	-3.1	-0.4	0.0	/	0.8	5.4	-13.5
COCCn1c(=NC(=O)c2cccs2)sc2cc(NC(C)=O)ccc21	/	/	/	-14.9	/	-0.3	22.7%	-1.0	36.8	-3.4
CC1(C)Cc2c(cnn2-c2ccccc2)-c2c1c1ccccc1n2CC(O)CBr (stereo unspecified)	/	/	/	17.9	/	0.4	?	-6.8	2.1	2.2
Cc1ccccc1N(CC(=O)NC1CCCC1)C(=O)c1csnn1	16.2	8.3	-2.0	-5.3	-0.9	0.6	-10.7%	0.9	5.3	-2.1
Cc1ccc(F)cc1NC(=O)CCc1c(C)nn(-c2ccc(N3CCCCC3)nn2)c1C	5.7	11.4	-5.6	5.9	-8.3	-1.9	-6.9%	0.3	-3.2	-9.8
COCCNC(=S)N/N=C/c1c2ccccc2cc2ccccc12	-0.7	-11.8	5.9	-5.7	2.7	-0.4	/	9.0	5.5	8.9
Cc1cccc(NC(=O)C(C)Sc2nnc(-c3cccnc3)o2)c1 (stereo unspecified)	/	/	/	/	-6.7	0.9	-9.6%	/	/	-6.3
CC1CC(=O)C=C(O)C1C(=O)OC(C)(C)C (stereo unspecified)	/	/	/	1.6	/	1.0	?	-0.2	-4.1	/
C=CCNC(=S)NNC(=O)COc1ccc2cc(Br)ccc2c1	-26.1	-24.6	2.7	?	-2.3	-0.2	6.4%	2.6	-40.2	5.5
CC(=O)N(C)c1ccc(NC(=O)CCN2C(=O)c3ccccc3C2=O)cc1	28.8	11.5	3.6	-11.9	-1.8	0.0	/	-1.3	-4.5	1.7
CCOC(=O)N1CCC(NC(=O)c2cc3c(-c4ccc(OC)c(OC)c4)nn(C)c3s2)CC1	/	/	/	3.5	/	0.1	-10.0%	-2.9	10.3	12.9
COC(=O)CCC(=O)OC1(C)C(=O)C2=CN(Cc3ccc4c(c3)OCO4)C(c3ccc(OC)cc3)=CC2=C(Br)C1=O (stereo unspecified)	/	/	/	13.9	/	-0.1	/	6.5	4.3	-2.8
(more compounds)
SMILES	rRNA inh HTS	rRNA inh HTS OD600	rRNA inh HTS RFP	T cruzi inh	MLL AF4-AF9 inh	Bfl-1 A1 inh	Vif TR-FRET	RanGTP-Impb inh	Calb FLC	Beta apoptosis
O=C(Nc1ccc2c(c1)OCO2)c1ccc(NC2CC2)c([N+](=O)[O-])c1	-9.1	-5.9	-5.4	12.5	2.5	-0.9	-8.9%	3.7	-6.5	10.9
CC(C)CCNC(=O)c1onc(CSc2nc3ccccc3[nH]2)c1C(=O)NCCC(C)C	-2.9	-8.1	-3.9	-2.0	0.7	0.4	/	2.3	-6.9	7.1
Cc1cc2cc(CCNS(=O)(=O)c3ccc(F)cc3)c(=O)[nH]c2cc1C	3.2	3.2	5.5	/	-0.4	-0.2	/	7.2	10.5	-2.2
NS(=O)(=O)c1ccc(N/N=C/C=C/c2ccccc2[N+](=O)[O-])cc1	-5.0	-15.8	1.6	19.5	4.4	-0.2	/	-3.0	9.1	-0.5
CC(=O)Cc1nsc(Nc2ccc(Cl)cc2)n1	-11.2	-12.5	3.9	/	-1.4	-0.2	2.4%	/	117.5*	3.1
N#C/C(=C/c1cc(Cl)c(O)c(Cl)c1)C(=O)N1CCCCC1	-27.1	-24.2	-6.7	-1.1	-1.5	-3.5	-2.9%	4.2	9.2	-2.9
O=C(NCCSc1ncc(-c2ccc(F)cc2)[nH]1)c1ccco1	-1.6	-0.5	-1.5	-0.6	2.5	-0.1	-6.9%	0.2	-4.7	0.0
Cc1cc(C)c(/C=C(\C#N)S(=O)(=O)c2ccccc2)[nH]1	/	/	/	-10.9	2.8	0.7	/	-1.7	-2.1	-4.1
O=C(CCl)NNC(=O)c1c(O)c2ccccc2[nH]c1=O	-14.9	-11.1	-5.8	1.4	/	0.1	10.1%	1.4	5.4	-6.2
CCCC(=O)Nc1cc(-c2nc3ncccc3o2)ccc1Cl	5.0	5.3	-1.3	0.2	-1.7	0.2	/	2.4	-11.2	/
Cc1ccc(S(=O)(=O)Nc2cc(C)c(O)c(Sc3n[nH]c(C)n3)c2)cc1	-42.8*	-4.6*	-6.7*	-2.3	2.7	0.0	/	0.2	-2.8	3.4
CC(C)(C)C(=O)NC(CC(=O)O)c1ccccc1 (stereo unspecified)	5.6	17.4	-1.2	-10.2	1.9	0.1	-1.5%	-2.3	-10.1	-3.9
O=C1c2cccnc2C(Nc2ccc(Cl)cc2)N1Cc1cccs1 (stereo unspecified)	-8.4	-13.3	2.0	5.6	1.9	0.5	-1.1%	9.5	-15.4	-1.9
c1ccc(CCc2nc(-c3ccccn3)no2)cc1	/	/	/	-3.5	/	-0.6	1.6%	6.2	-2.3	1.7
CCOc1ccccc1CNS(=O)(=O)c1cc(-c2cc(C)no2)ccc1C	-6.2	-29.1	-15.4	13.4	0.1	2.7	/	0.3	20.7	0.6
COc1nccnc1NS(=O)(=O)c1ccc(NS(=O)(=O)c2ccc(NC(C)=O)cc2)cc1	/	/	/	-6.4	/	0.4	?	1.1	1.6	-5.2
O=C(Cn1c(-c2ccccc2)noc1=O)NCc1ccccc1	/	/	/	-8.8	/	0.0	4.4%	-1.3	-13.9	-0.6
O=c1c2nccnc2[nH]c(=S)n1Cc1ccccc1	1.3	9.3	2.4	-6.9	-4.9	-1.0	-3.4%	-1.8	3.9	-0.4
Cc1ccc(NS(=O)(=O)c2cccc(C(=O)NCCCn3ccnc3)c2)cc1	0.6	11.3	6.5	-2.8	-1.7	0.4	-8.5%	4.3	-3.6	-4.6
COC(=O)c1ccccc1S(=O)(=O)N1CCC(c2nc3ccccc3o2)CC1	/	/	/	3.2	/	0.0	13.0%	-1.5	4.5	-4.8
O=C(NC12CC3CC(CC(C3)C1)C2)N1CCC(O)(c2ccc3c(c2)OCO3)CC1	/	/	/	12.1	/	0.9	18.6%	1.5	-1.1	-1.9
COc1ccccc1OCC(=O)Nc1c2c(nn1-c1ccccc1)CS(=O)(=O)C2	4.6	26.4	4.5	6.6	-1.7	0.2	/	5.3	0.5	-5.2
CC(C)c1nnc(NC(=O)CCC(=O)N2CCN(C3c4ccccc4-c4ccccc43)CC2)s1	5.1	3.2	-2.1	13.9	-50.1	1.8	21.7%	-0.1	0.8	/
Cc1ccc(S(=O)(=O)Cn2nnnc2CN2CCN(Cc3ccc4c(c3)OCO4)CC2)cc1	/	/	/	6.2	/	-0.3	-2.8%	0.0	-6.6	-5.9
COC(=O)C1C(=O)CC(C)(O)C(C(=O)OC)C1c1ccccc1F (stereo unspecified)	/	/	/	1.8	/	0.2	-0.5%	2.8	1.0	-2.3
The results go on.
SMILES	rRNA inh HTS	rRNA inh HTS OD600	rRNA inh HTS RFP	T cruzi inh	MLL AF4-AF9 inh	Bfl-1 A1 inh	Vif TR-FRET	RanGTP-Impb inh	Calb FLC	Beta apoptosis
COC(=O)C1(C)NC(c2ccc(O)cc2)C2C(=O)N(c3ccc4c(c3)OCCO4)C(=O)C21 (stereo unspecified)	/	/	/	-3.9	/	0.5	2.3%	3.7	-2.9	-2.5
C=CCNC(=O)COc1cc(C)cc(C)c1C	-2.0	4.5	-1.1	2.7	-2.7	-0.2	-1.5%	-2.7	1.0	-0.6
O=C(NNS(=O)(=O)c1ccc(F)cc1)c1cc2ccccc2cc1O	-6.3	-28.1	1.0	-10.0	-3.5	-0.7	-8.9%	-8.3	34.5	0.8
COc1ccccc1C1NC(=O)NC(C)=C1C(=O)OC1CCCC(C)C1 (stereo unspecified)	7.9	2.1	2.1	16.9	-0.4	0.9	/	-1.6	5.9	1.4
CCN1CCN(C(=O)C2(NC(=O)Nc3cccc(F)c3)CCCCC2)CC1	/	/	/	0.1	/	-0.3	3.7%	3.3	?	-2.0
COc1ccc(-c2noc(CCCC(=O)Nc3cccnc3)n2)cc1OC	-16.6	-5.5	-1.5	-10.9	-1.5	0.3	-5.6%	0.3	-11.9	-6.1
CC(=O)OCC1OC(Nc2cccc(C)c2)C(OC(C)=O)C(OC(C)=O)C1OC(C)=O (stereo unspecified)	/	/	/	-10.1	/	0.1	-5.8%	-1.4	1.1	-3.3
C=CCNC(=S)NNC(=O)c1ccc(OCCC)cc1	/	/	/	9.2	/	0.1	4.2%	-0.8	10.7	-1.0
C/C(=N/NC(=O)c1ccc(O)cc1)c1cccc([N+](=O)[O-])c1	5.0	13.3	6.4	9.1	-0.2	-0.5	23.0%	4.0	13.1	-0.8
